RE007 growth inh: less growth of the S. pombe RE007 Vpr strain; S. pombe RE007 Vpr strain, BacTiter-Glo ATP luminescence, 24 h; control for the full effect not named in the record; Potency, µM (titrated, usually from 92.2 µM), for inactives: at the top dose activity change, negative = less growth; 360,000 tested, 0.21% active; AID 651644; active = well fitted falling curve with a large enough effect; inconclusive = small, poorly fitted or top-dose-only effect; inactive = no such curve, though single readings can be large or run the other way;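 also: % is scaled to controls: 0 for no effect and ±100 for the full control effect; nearly all actives have a fitted effect of over 50% in size; the assay follows cell death caused by Vpr and the record does not say whether a fall means rescue or toxicity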
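Fission yeast RE007 carrying one integrated HIV-1 vpr copy, seeded at OD 0.01 in PMG+AL medium with 23 nL pinned compound. Grown 24 h at 30 degrees; viability read by BacTiter-Glo luminescence after 5 min.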
NS1 inh: inhibitors of influenza NS1 protein function; S. cerevisiae slowed by influenza A NS1, growth recovery by OD600; Potency, µM (top dose mostly 46.1 µM), for inactives: at the top dose activity, positive = more growth; 270,000 tested, 0.4% active; AID 2326; also: actives are rising curves; nearly all actives have a fitted effect of over 50% in size
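OD600 was taken as the measure of yeast growth restored by compound in an NS1-expressing S. cerevisiae strain. Cells had been washed out of glucose medium and diluted 1:100 into galactose -URA medium, pH 6.0.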
Lassa entry inh: inhibitors of Lassa virus binding or cell entry; Lassa virus pseudotype entry inhibition, cell reporter; control for the full effect not named in the record; Potency, µM (series often up to 37.9 µM), inactives show top-dose activity change, negative = inhibition, most hits filed as inhibitors; 300,000 tested, 1.2% active; AID 540256; active means well fitted inhibition curve with a large enough effect; inconclusive means small, poorly fitted or top-dose-only effect, or effect the other way; inactive means flat fitted curve, though single readings scatter; tested in HEK293 cells; also: % is scaled to controls: 0 for no effect and ±100 for the full control effect; nearly all actives have a fitted effect of over 50% in size; luciferase read-out
SARS PLP yeast: SARS-CoV PLP inhibition in yeast. S. cerevisiae expressing SARS-CoV PLpro, growth rescue; control for the full effect not named in the record. Potency, µM (top dose mostly 32.9 µM), for the others: at the top dose activity, positive = growth rescue. 330,000 tested, 0.19% active. AID 485353; also: 0% is about no effect; nearly all actives have a fitted effect of over 55% in size; growth read by luminescence after 48 h
Cruzain noTriton: inhibitors of Trypanosoma cruzi cruzain without detergent; AID 1476; purified cruzain, Z-FR-AMC fluorescence, no detergent; Potency, µM, inactives show max response, negative = inhibition, actives largely listed as inhibitors; 200,000 tested, 2.3% active; active = well fitted curve in the direction sought with a large enough effect; inconclusive = small, poorly fitted or top-dose-only effect, or another doubt; inactive = no such curve, though single readings can be large; an effect the other way counts as inactive or inconclusive;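 also: plate controls were enzyme without inhibitor for no effect and buffer without enzyme for full effect; nearly all actives have a fitted effect of over 40% in size; top concentration of the series not given in the record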
Target sequence (P25779 123-467 limits assumed): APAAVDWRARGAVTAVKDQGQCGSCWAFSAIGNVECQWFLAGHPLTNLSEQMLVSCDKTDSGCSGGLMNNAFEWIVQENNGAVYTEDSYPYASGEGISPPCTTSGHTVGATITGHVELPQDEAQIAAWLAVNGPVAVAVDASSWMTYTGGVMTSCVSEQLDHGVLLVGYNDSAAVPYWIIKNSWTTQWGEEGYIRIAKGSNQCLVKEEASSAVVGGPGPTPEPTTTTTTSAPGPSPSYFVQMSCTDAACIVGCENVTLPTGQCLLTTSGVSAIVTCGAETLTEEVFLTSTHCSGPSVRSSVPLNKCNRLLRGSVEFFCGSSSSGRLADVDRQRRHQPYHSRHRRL
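Purified cruzain at 1.5 nM, pre-incubated 15 min with compound at room temperature in 100 mM sodium acetate pH 5.5, 5 mM DTT, 0.00005% Triton X-100. Reaction started with 2 uM Z-FR-AMC; AMC fluorescence increase over 60 s gives rate.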
2A StopGo: FMDV 2A StopGo reporter, luciferase signal; human cells with a luciferase reporter of 2A StopGo recoding; control for the full effect not named in the record; Potency, µM (highest dose often 57.9 µM), without a hit: at the highest dose signal change, negative = less light; 410,000 tested, 1.2% active; active = well fitted falling curve with a large enough effect; inconclusive = small, poorly fitted or top-dose-only effect; inactive = no such curve, though single readings can be large or run the other way; tested in HEK293T cells; also: % is scaled to controls: 0 for no effect and ±100 for the full control effect; nearly all actives have a fitted effect of over 45% in size; luciferase light after 4 h
Marburg entry inh: inhibitors of Marburg virus binding or cell entry | AID 540276 | Potency, µM (highest dose often 37.8 µM), inactives show top-dose activity change, negative = inhibition, most hits filed as inhibitors | 300,000 tested, 1.8% active | Marburg virus pseudotyped entry inhibition, cell reporter; control for the full effect not named in the record; about a third of the inactives were read at about 46 µM; active = well fitted inhibition curve with a large enough effect; inconclusive = small, poorly fitted or top-dose-only effect, or effect the other way; inactive = flat fitted curve, though single readings scatter; tested in HEK293 cells; about a fifth of its hits are not listed in these tables; also: % is scaled to controls: 0 for no effect and ±100 for the full control effect; luciferase read-out
Cruzain Triton: cruzain (T. cruzi) inhibition with detergent; 200,000 tested, 0.43% active; Potency, µM, inactives show max response, negative = inhibition, usual class: inhibitors; P25779; purified cruzain, Z-FR-AMC fluorescence, 0.01% Triton; active = well fitted curve in the direction sought with a large enough effect; inconclusive = small, poorly fitted or top-dose-only effect, or another doubt; inactive = no such curve, though single readings can be large; an effect the other way counts as inactive or inconclusive;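 also: plate controls were neutral wells for no effect and buffer without enzyme for full effect; nearly all actives have a fitted effect of over 40% in size; top concentration of the series not given in the record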
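Read-out: AMC fluorescence (360 nm excitation, 450 nm emission), four reads over 2 min, first-to-third difference used. Conditions: cruzain 1.5 nM, Z-FR-AMC 2 uM, pH 5.5 acetate, 5 mM DTT, 0.01% Triton X-100.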
* = called active by the depositor; ? = inconclusive; / = not tested or not shown; & = joins results of further samples; [ ] = another dose, or the depositor's remark. Unless noted, calls follow the shape of the dose curve; as a rule, active means well fitted rising curve with a large enough effect; inconclusive means small, poorly fitted or top-dose-only effect; inactive means no such curve, though single readings can be large or run the other way. Potency is read from the fitted curve at half-maximal effect.

SMILES | RE007 growth inh | NS1 inh | Lassa entry inh | SARS PLP yeast | Cruzain noTriton | 2A StopGo | Marburg entry inh | Cruzain Triton
CC1CCCCC1N(C)C1CCN(C(=O)CNC(=O)/C=C/c2cccc(Cl)c2)CC1 (stereo not drawn) | 6% | 5% | / | 3% | / | -2% | / | /
COc1ccc(NC(=S)NCc2ccc(Cl)cc2)c(OC)c1 | 1% | ? | / | -2% | / | 14% | / | /
COc1ccc(CCNC(=S)N2CCC(Cc3ccccc3)CC2)cc1OC | -8% | 8% | -6% | 0% | / | ? | -18%[46.1 µM] | /
O=C(CC1CCCCC1)Nc1ccccc1-c1ccccc1 | 0% | 1% | -2% | 10% | -3% | -3% | 4% | -1.6%
CCN(CC)S(=O)(=O)c1ccc(NC2c3ccccc3C(=O)N2Cc2ccco2)cc1 (stereo not drawn) | 3% | -5% | / | -7% | -7% | -26% | / | -7.8%
CCN(CC)CCCOC(=O)C(c1ccccc1)c1ccccc1 | -13% | -5% | / | 1% | / | -20% | / | /
CN1CCN(/N=C/c2ccc(N(c3ccccc3)c3ccccc3)cc2)CC1 | 4% | 1% | 0.63µM* | 1% | / | ? | 1.3µM* | /
CC(C)C(c1nnnn1C1CCCC1)N1CCCc2ccccc21 (stereo not drawn) | -6% | -34% | 4% | -32% | -16% | -16% | ? | -3.6%
Cc1ccc(N2CCN(C3=NC(=O)/C(=C\c4cn[nH]c4-c4ccccc4)S3)CC2)cc1 | 2% | 25% | ? | 8% | -1% | 0% | ? | -11%
COC(=O)c1ccc2nc(Nc3nc4ccc(F)cc4s3)sc2c1 | -1% | 5% | 6.3µM* | -28% | ? | ? | 0.79µM* | -1.9%
Cc1ccc(C)c(C(=O)COc2ccccc2[N+](=O)[O-])c1 | / | -7% | -1% | 11% | -6% | 6% | 12% | -5.7%
CC(Oc1ccc(F)cc1Br)c1nc2ccccc2c(=O)[nH]1 (stereo not drawn) | 8% | -32% | 19%[46.1 µM] | -7% | / | -7% | -7%[46.1 µM] | /
COc1ccc(Nc2ncc3c(n2)CC(c2ccc(OC)cc2)CC3=O)cc1 (stereo not drawn) | -12% | 16% | ? | -2% | -2% | -21% | ? | -2.1%
CCOc1ccc(NC(=O)Nc2ccc3c(c2)nc(C)n3C)cc1 | 0% | ? | / | 0% | / | 10% | / | /
CC(C)(C)c1cc(Br)ccc1OCC(=O)Nc1ncn[nH]1 | 19% | -45% | -15% | -10% | 3% | -18% | -9% | 1.1%
CC(=O)N1CCC(N(C(=O)Nc2ccc(F)cc2)C2CCCC2)CC1 | -4% | -15% | / | 3% | ? | -5% | / | 2.3%
CC(C)C[C@@]12C(=O)N(c3ccc(Br)cc3)C(=O)N1[C@H](c1ccc(Br)cc1)[C@@H]1C(=O)N(C(C)(C)C)C(=O)[C@@H]12 | 13% | 19% | / | 5% | / | -13% | / | /
Cc1ccc(C(=O)NC(C)CCc2ccccc2)cc1[N+](=O)[O-] (stereo not drawn) | 4% | -36% | -14% | -13% | -11% | -19% | -5% | 3.1%
COc1cc(NC(=O)c2ccc(CNc3c(N4CCCC4)c(=O)c3=O)cc2)cc(OC)c1OC | -3% | -7% | ? | 0% | / | 1% | 3%[46.1 µM] | /
Cc1cc(C)cc(-n2c(-c3ccccc3)c(C)n3c4c(=O)n(C)c(=O)n(C)c4nc23)c1 | / | / | -1%[46.1 µM] | / | -5% | -23% | -17%[46.1 µM] | 0.6%
O=C(Nc1nc(N2C(=O)c3ccccc3C2=O)n(-c2ccccc2)n1)c1ccc(F)cc1 | 23% | 24% | 6% | 3% | -5% | 10% | 13% | 2.6%
NC(=O)CCN1CCC(c2nc3ccccc3s2)CC1 | -19% | -6% | 12% | 6% | / | 9% | 16%[46.1 µM] | /
CCn1c(CNC(=O)Cc2ccc(OC)cc2)nnc1SCC(=O)c1ccc(Br)cc1 | 1% | -2% | 11% | -2% | 2% | 0% | -14% | 2.0%
CSc1cccc(NC(=O)CNC(=O)c2ccc3c(c2)OCO3)c1 | -9% | / | 18% | 1% | / | 17% | 5% | /
N[C@H](CP(=O)(O)O)C(=O)O | / | / | / | / | 8% | -7% | 6%&6% | 2.6%
CCCc1nc2c(sc3nc4c(cc32)COC(C)(C)C4)c(=O)n1CCN(C)C | 2% | / | -1%[46.1 µM] | 1% | / | -15% | 8%[46.1 µM] | /
COc1ccc(-c2cc(-c3nnc(COC(=O)c4ccncc4)o3)c3ccccc3n2)cc1OC | -12% | / | -11% | 0% | / | -14% | -19%[46.1 µM] | /
O=C(N1CCCCC1)N1CCN(C(=O)N2CCCCC2)CC1 | -3% | / | -1% | -3% | / | -11% | 17%[46.1 µM] | /
CCO[C@H]1OC(C(=O)Nc2ccccc2)=C[C@@H](c2cn(C(C)=O)c3ccccc23)[C@@H]1CCCO | 9% | 7% | / | 1% | / | -23% | / | /
COc1ccc(C(CNC(=O)Cn2c(=O)oc3ccccc32)N(C)C)cc1 (stereo not drawn) | -22% | -4% | -2% | -2% | / | -5% | -17% | /

Reprinted from the part before: 4 entries, then new ones.
SMILES | RE007 growth inh | NS1 inh | Lassa entry inh | SARS PLP yeast | Cruzain noTriton | 2A StopGo | Marburg entry inh | Cruzain Triton
COc1ccc(-c2cc(-c3nnc(COC(=O)c4ccncc4)o3)c3ccccc3n2)cc1OC | -12% | / | -11% | 0% | / | -14% | -19%[46.1 µM] | /
O=C(N1CCCCC1)N1CCN(C(=O)N2CCCCC2)CC1 | -3% | / | -1% | -3% | / | -11% | 17%[46.1 µM] | /
CCO[C@H]1OC(C(=O)Nc2ccccc2)=C[C@@H](c2cn(C(C)=O)c3ccccc23)[C@@H]1CCCO | 9% | 7% | / | 1% | / | -23% | / | /
COc1ccc(C(CNC(=O)Cn2c(=O)oc3ccccc32)N(C)C)cc1 (stereo not drawn) | -22% | -4% | -2% | -2% | / | -5% | -17% | /
COc1cccc(CCN2CCC(CNS(=O)(=O)c3cc(-c4cc(C)no4)ccc3OC)CC2)c1 | -5% | -17% | / | -2% | / | ? | / | /
CCC1Oc2ccc(C)cc2N(CC(=O)N(Cc2ccc3c(c2)OCO3)CC2CCCO2)C1=O (stereo not drawn) | 5% | -16% | 21%[14.3 µM] | -1% | ? | -13% | ? | -4.1%
O=C(c1ccc(CS(=O)(=O)c2ccc(Br)cc2)o1)N1CCN(c2ncccn2)CC1 | 7% | 0% | / | -5% | -1% | 0% | / | -0.8%
COc1ccc2c(c1)c(CC(=O)Nc1nnc(C3CC3)s1)c(C)n2C(=O)c1ccc(Cl)cc1 | -12% | 2% | ? | 0% | / | 5% | 3.2µM* | /
Cc1noc(C)c1CSCC(=O)OCc1nnc(-c2ccc([N+](=O)[O-])cc2)o1 | -11% | / | 17% | -5% | / | -12% | 11% | /
CCc1ccc(NC(=O)c2ccc3oc(=O)n(Cc4ccccc4)c3c2)cc1 | / | / | ? | / | 30% | ? | / | 1.3%
O=C(Nc1c2c(nn1-c1cccc(Cl)c1)CS(=O)(=O)C2)c1cccs1 | 15% | -3% | / | 15% | / | -6% | / | /
CCOC(=O)N1CCN(c2c(Nc3ccc4c(c3)OCCO4)c(=O)c2=O)CC1 | -8% | -1% | / | 10% | -7% | 0% | / | -4.5%
COc1ccc(C(=O)Nn2c(CCC(=O)O)ccc2-c2ccc(C)cc2)cc1OC | -9% | 1% | 1% | 1% | / | 9% | -7%[46.1 µM] | /
CCOc1ccc(Sc2cc(C(=O)NCc3ccccc3Cl)c3ccccc3n2)cc1 | / | / | 9%[46.1 µM] | / | 1% | 0% | / | 1.3%
Cc1ccc(OCC(=O)Nc2ccccc2C(=O)N2CCCCC2)cc1 | -14% | 14% | -19%[46.1 µM] | 12% | / | -15% | ? | /
Cc1ccc(C)c(N2CCN(CCCNC(=O)c3ccc4nc(CCc5ccccc5)oc4c3)CC2)c1 | / | / | ? | / | -10% | -20% | / | -2.5%
Cc1cccc(CN2CCC(CNC(=O)CSc3cc(=O)n(C)c4cc(Cl)ccc34)CC2)c1 | -5% | 0% | 1%[46.1 µM] | 0% | / | -12% | 14%[46.1 µM] | /
O=C(NCCNC(=O)c1cc(OCC(F)(F)F)ccc1OCC(F)(F)F)Nc1cccc(C(F)(F)F)c1 | 4% | 9% | ? | -2% | 12% | -2% | ? | -7.8%
O=C(CSc1nnc(-c2cccnc2)o1)N1CCCCC1 | 2% | 9% | -17%[46.1 µM] | 4% | / | 9% | ? | /
COc1cc(-c2noc(-c3ccc(N4CCCC4)c([N+](=O)[O-])c3)n2)cc(OC)c1OC | / | / | 22%[46.1 µM] | / | ? | -9% | 5%[46.1 µM] | -7.3%
O=C(CN1C(=O)NC(c2ccccc2)(c2ccccc2)C1=O)Nc1cccnc1Cl | 13% | -5% | -10%[46.1 µM] | 2% | / | -1% | -5%[46.1 µM] | /
COc1ccc(NC(=O)COc2ccc(CNCCCN3CCOCC3)cc2OC)cc1 | 4% | 9% | 19% | -6% | 3% | 0% | ? | 0.0%
Cc1cc(C)n(C(=O)c2cc3ccccc3c(=O)o2)n1 | 15% | -2% | 20% | 2% | -3% | -8% | 7% | 2.0%
CC[C@H](C)[C@@H](NC(=O)O[C@@H]1C(=O)c2cc(Br)ccc2O[C@H]1c1ccc2c(c1)OCO2)C(=O)OC | / | 26% | 16% | -6% | -3%&-14% | / | 15% | -4.2%&-2.3%
Cc1ccc(S(=O)(=O)N(C)CC(=O)NCc2ccncc2)cc1 | 9% | -4% | 13% | 1% | 0% | -9% | ? | 3.8%
COC(=O)c1cccc(-n2nnnc2SCC(=O)Nc2nc3c(s2)CCCC3)c1 | 13% | 8% | 0% | -1% | ? | -29% | 0% | -1.7%
Cc1cc(C)n(C(=O)CNC(=O)c2cccc(Cl)c2)n1 | 0% | -3% | -3%[46.1 µM] | -17% | / | 29% | ? | /

Source: PubChem BioAssay
